Bead autofluor: counter-screen for toxin protease inhibitors: compound fluorescence; compound autofluorescence counterscreen, microsphere flow cytometry; hits give high values; fluorescence intensity (no concentration beside the values); 360,000 tested, 3.1% active;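 active means at least 3 SD above the mean of all compounds, about 16000 in these data; inconclusive means too few beads counted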;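 further: 100 nL of 1 mM stock went into each well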
RN4220 kill: growth inhibition of S. aureus RN4220, primary screen, OD600; 16 h; inhibition, % (no concentration beside the values); 330,000 tested, 0.33% active; AID 1259311, 2017;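 active means z-score of -3 or lower and OD600 up to 0.18 on both plates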;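 further: plate controls were untreated cells for no effect and reference antibiotic for full effect; stock transfer was 100 nL into about 80 µL; one replicate is shown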
Mtb hypoxia rep: PubChem AID 1159583; M. tuberculosis hypoxia-regulated fluorescent reporter, fluorescence; fluorescence inhibition, % (no concentration beside the values); 300,000 tested, 0.1% active;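 active means 35 to 45% if threefold the growth effect, above 45% if 1.5-fold the growth effect; inactive means the rest, general growth blockers included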;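 further: wells of about 50 µL received 100 nL stock; 0% = vehicle wells and 100% = reference inhibitor wells; whole bacteria with a GFP reporter of the hypoxia response; strong numbers were not always called active; many hits fall short of the cut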
PrP 5UTR inh: inhibition of PrP 5' UTR reporter expression | cell-based PrP 5' UTR mRNA reporter, plate reader | inhibition, % (concentration not given with the values) | 340,000 tested, 0.35% active;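 active means every replicate at 50% or more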;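 further: 0 = median of the neutral control wells; tested in H4 reporter cells; numbers are from one replicate; inactives centre near -14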
BJeLR lethal: MLPCN primary cell-based screen for lethality selective to Ras in HRASV12 cells; BJeLR (HRASV12) viability, CellTiter-Glo ATP luminescence, 48 h; reference of the scale not given here; 300,000 tested, 0.17% active; inhibition, % (concentration not given with the values);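 active means replicate mean above 50%; inconclusive means above 50% but judged a plate artefact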;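 further: 50 nL library stock added to about 25 µL; numbers are from one replicate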
ugtP null kill: growth inhibition of ugtP-null S. aureus, primary screen, RN4220 ugtP deletion, OD600 | 16 h; some inactives read as strong as hits | growth inhibition, % (no concentration beside the values) | 330,000 tested, 0.54% active | AID 1259309, 2017;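 active means z-score under -3 and OD600 up to 0.15 on both plates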;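 further: plate controls were untreated wells for no effect and antibiotic for full effect; wells of about 80 µL received 100 nL stock; the first replicate is given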
Mtb hypoxia rep growth: further read-out of Mtb hypoxia rep, marked with its call; growth inhibition, %; measured here: M. tuberculosis growth (absorbance);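 0% = vehicle and 100% = reference antibiotic; read after six days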
Numbers without * were called inactive; u = inconclusive; x = not tested or not shown; & = joins results of further samples.

SMILES	Bead autofluor	RN4220 kill	Mtb hypoxia rep	Mtb hypoxia rep growth	PrP 5UTR inh	BJeLR lethal	ugtP null kill
CC(C)Oc1ccc(S(=O)(=O)N2CCOCC2)cc1NC(=O)C1CCC1	5356	0.3	-3.0	-0.5	-14.4	-4.4	3.2
CC1CN(C(=O)c2cccc(S(=O)(=O)NCc3ccccc3)c2)CC(C)O1 (configuration not stated)	7764	-0.6	2.1	3.9	-18.5	x	3.1
CN(C)CCCN1C(=O)c2cccc3c(Br)ccc(c23)C1=O	3977	-0.3	67.1*	5.0*	-101.5	5.0	11.4
Cc1ccc(NC(=O)Cc2nnc(SCC(=O)NC3CCCC3)n2C)cc1C	3651	x	x	x	-25.1	4.6	x
NCCNc1cc(N2CCCC2)ccc1[N+](=O)[O-]	2061	5.6	17.7	16.1	-8.3	9.6	8.6
O=C(Nc1ccc(O)c(-c2nc3ccccc3o2)c1)C1(c2ccc(Cl)cc2)CCCC1	2493	4.8	x	x	-6.8	-2.5	-4.0
O=C(Nc1cc([N+](=O)[O-])ccc1F)C1CC1	2014	6.1	18.0	17.5	-3.9	-8.5	8.1
O=C(Nc1nccs1)c1ccc(Br)cc1	3568	1.5	-4.4	-1.0	-59.3	4.1	6.5
CC(=NNC(=O)c1cc(-c2cccc([N+](=O)[O-])c2)n[nH]1)c1ccc(F)cc1	x	4.8	14.8	-5.5	x	x	4.4
Cc1cc(C)cc(CSCC(=O)N/N=C/c2ccc(OCC(=O)NCc3ccco3)cc2)c1	21576*	x	x	x	-72.3	1.9	x
C=CCN1CCN(C(=O)CCCc2ccccc2)CC1	4185	2.7	13.6	15.4	41.9	0.4	4.9
C[C@@H](C(=O)CC(=O)OC(C)(C)C)[C@@H](O)c1c(F)cccc1Cl	3786	x	x	x	-15.1	0.0	x
CC(=O)c1ccc(N2CCN(CC(=O)NCc3ccccc3)CC2)cc1	3674	1.5	9.0	9.6	-17.5	10.8	-4.5
Cc1nc(NC(=O)c2ccccc2)nc2cc3c(cc12)OCO3	2499	1.5	-7.8	10.9	-70.5	-22.9	0.8
CC1CCCCN1Cc1c(O)ccc2c(=O)c(-c3nc4ccccc4s3)c(N)oc12 (configuration not stated)	2214	-6.6	5.8	2.9	-15.3	0.2	-8.9
COc1ccc(/C=C/C(=O)NCC(=O)N/N=C(/CCC(=O)O)c2ccccc2)cc1	4352	x	x	x	-13.8	-4.8	x
Cc1cc2c(c(=O)n1Cc1cccnc1)C(c1cccs1)C(C#N)=C(N)O2 (configuration not stated)	4898	1.3	x	x	-3.1	3.9	3.2
O=[N+]([O-])c1ccc(-n2cc(-c3ccccc3)nn2)cc1	3875	10.2	2.0	14.2	-5.3	-4.3	6.6
CN(C)/C=C/c1c([N+](=O)[O-])c2ccc(O)cc2n1-c1ccccc1	3288	5.7	13.0	2.6	-6.3	7.7	13.1
COc1ccc(S(=O)(=O)Nc2nc3c(s2)C(=O)CC(C)(C)C3)cc1	3165	-2.3	-0.8	3.1	-2.3	-5.6	-1.9
COc1ccc(C(=O)Nc2cccc(C(=O)NCc3ccco3)c2)cc1	3917	6.1	14.6	9.4	-31.4	-8.3	2.1
CC[C@H](OC(C)=O)C(C[C@H](C)N(C)C)(c1ccccc1)c1ccccc1	6216	1.2	x	x	7.7	x	6.4
CCN(C(=O)c1ccncc1)c1c(N)n(Cc2ccccc2)c(=O)[nH]c1=O	6390	3.8	-1.2	-5.4	-10.6	x	5.0
COc1cc(CN2CCCC(N3CCN(c4ccccc4C)CC3)C2)ccc1O (configuration not stated)	3770	-0.2	2.4	13.7	16.6	2.3	3.1
CCOC(=O)c1c(NC(=O)COC(=O)c2cnccn2)sc(C(=O)NC)c1C	u	x	x	x	-3.2	-9.7	x
Cc1csc(C(C#N)C(=O)c2ccc(S(=O)(=O)N3CCCC3)cc2)n1 (configuration not stated)	7451	7.0	5.5	3.8	-17.7	3.9	-0.4
Cc1ccc(S(=O)(=O)N2CCC(C(=O)NCc3ccccc3CN3CCCC3)CC2)cc1	3338	1.3	4.6	-0.4	-5.8	x	2.9
CCN(CC(=O)NCc1cccs1)C(=O)c1ccc(S(=O)(=O)Nc2ccccc2F)cc1	6029	x	x	x	-12.9	5.1	x
CC(C)c1ccc(S(=O)(=O)N2CCN(C(=O)Cc3ccsc3)CC2)cc1	u	-3.7	-3.9	1.0	-4.8	-8.6	-3.2
Cc1ccc(-c2cc(=O)[nH][nH]2)c(C)c1	22424*	5.2	1.9	2.0	-11.7	-6.6	0.1
CCCC(=O)C1=C(O)C(C(=O)OC)C(C)(C)CC1=Nc1cccc([N+](=O)[O-])c1 (configuration not stated)	3235	2.3	9.4	-0.5	13.3	-7.8	4.5
O=C1c2ccccc2C(Nc2ccc3c(c2)OCCO3)N1c1ccc(Cl)cn1 (configuration not stated)	6031	-1.8	x	x	-17.2	1.3	3.3
COC(=O)c1ccc(COc2ccccc2OC)o1	3859	3.2	4.3	2.1	-12.4	5.4	2.4
COCCNC(=O)c1cn(C)c2ccc(S(=O)(=O)N3CCCCC3)cc2c1=O	6098	4.0	2.6	1.0	12.0	14.1	-2.1
COc1ccccc1OCC(=O)Nc1cc(NC(=O)COc2ccccc2OC)cc(C(=O)O)c1	4360	7.5	7.2	9.0	-19.9	-1.5	10.6
O=C(CCC(=O)N1CCN(c2ccc(O)cc2)CC1)c1cccs1	4399	3.8	7.5	13.0	-14.0	-6.2	15.6
Cc1cc(C)nc(N=C(NC(=O)Nc2ccc(Cl)c(Cl)c2)Nc2ccccc2)n1	x	-2.6	0.8	13.8	x	x	-3.6
O=C1c2ccccc2C(=O)N1OCc1c(F)cccc1Cl	4244	5.6	-0.1	3.2	-15.0	-4.1	4.0
O=C(CC1CCCCC1)c1c(O)c2ccccc2oc1=O	9212	28.5	-15.5	-4.1	-35.1	-5.1	13.6
Cc1cc(C)c(OCC(=O)NCC(C)(C)N2CCOCC2)c(C)c1	4868	6.8	-0.4	3.9	-28.1	2.2	4.4
COc1ccc([N+](=O)[O-])cc1NC(=O)CCN1CCN(c2ccccc2)CC1	4441	2.5	3.7	3.5	-20.9	-0.7	2.5
NNC(=O)C1CC1c1ccc(Cl)cc1 (configuration not stated)	2473	-2.7	-4.8	2.7	-16.3	0.2	-3.6
CC(CCN1CCc2nc(-c3ccccc3)c(-c3ccccc3)cc2C1)=NOCC(C)C(OCc1ccccc1)C(C)C (configuration not stated)	x	2.3	6.1	2.6	x	x	4.3
O=C(c1ccccc1NS(=O)(=O)c1ccccc1)N1CCCCCC1	3317	4.7	16.2	4.2	-1.8	-9.0	-1.9
C=CCC(CC(=O)NC(CO)Cc1ccccc1)C(=O)NCCOC(=O)C(CC=C)CC(=O)OC(C)(C)C (configuration not stated)	x	5.1&8.1	4.1&10.0	8.6&5.8	x	x	4.0&3.9
CN1CCN(Cc2cc(=O)oc3cc4c(cc23)CCC4)CC1	4126	3.6	17.9	10.1	-5.7	12.1	-5.4
CCCC1=NN(C(=O)Cc2ccc(OC)cc2)C(O)(C(F)(F)F)C1 (configuration not stated)	2626	6.3	3.7	3.3	-13.8	1.2	-3.3
O=C(NN=Cc1ccco1)c1cc(-c2ccccc2)n[nH]1	x	3.4	11.9	9.7	x	x	-6.9
COc1ccccc1NS(=O)(=O)c1cccc(C(=O)NCC(c2ccccc2OC)N2CCCC2)c1 (configuration not stated)	20056*	1.6	0.5	1.5	-20.2	3.3	4.2
COc1ccc(OCC(=O)NNC(=S)NC(=O)C2CC2)cc1	u	15.1	8.8	30.9	-12.5	-1.8	-2.8
CCOc1ccc(/C=C2\SC(=S)N(Nc3ccccc3)C2=O)cc1OC	2128	-2.2	-3.2	-4.1	-9.1	4.8	-18.0
Cc1cccc(NC(=O)c2nc(S(=O)(=O)Cc3ccccc3)ncc2Cl)c1	5107	x	x	x	-9.0	22.2	x
O=C(NC1CCN(Cc2ccccc2)CC1)c1ccc(N2CC3CC(C2)c2cccc(=O)n2C3)c([N+](=O)[O-])c1 (configuration not stated)	3952	4.1	4.7	5.5	-8.4	-12.1	1.9
CSc1ccc(C=NNC(=O)C[n+]2ccccc2)cc1	x	-1.5	1.9	-6.8	x	x	-2.2
CCOc1cc(/C=N/NC(=O)c2cccnc2)ccc1OCC(=O)N(C)C	3935	x	x	x	-23.1	1.5	x
COP(=O)(OC)Oc1ccc(C(O)C(Cl)(Cl)Cl)cc1 (configuration not stated)	4405	5.9	11.7	2.0	-10.8	4.1	1.7
Cc1cccc(NS(=O)(=O)c2ccc(-c3ccc(=O)[nH]n3)o2)c1	5370	3.7	4.8	-1.8	-3.9	5.1	6.5
COCc1cc(C)nc(OCC(=O)NN=Cc2cc(C)n(-c3c(C)cccc3C)c2C)c1C#N	x	4.6	5.6	0.0	x	x	-9.2
COc1ccc(Cl)cc1NC(=S)NCCC(c1ccccc1)c1ccccc1	9432	-7.4	3.9	6.1	-23.5	13.1	34.4
COC(=O)c1cc(OC)c(OC)cc1NC(=O)c1ccccc1C	2682	3.1	9.3	3.7	-26.3	-4.0	4.0

(more compounds)
SMILES	Bead autofluor	RN4220 kill	Mtb hypoxia rep	Mtb hypoxia rep growth	PrP 5UTR inh	BJeLR lethal	ugtP null kill
Cc1ccc(C)c(CSc2nnc(-c3cccnc3)o2)c1	24006*	2.6	18.9	17.6	-3.0	8.6	12.2
CCN(CC(=O)Nc1ccc2c(c1)OCCO2)C(=O)c1ccc([N+](=O)[O-])s1	3950	5.5	-1.2	-14.0	-14.7	x	3.1
CCOC(=O)C1CCN(c2c(N(C)Cc3ccco3)c(=O)c2=O)CC1	5782	4.8	4.4	3.7	5.8	6.6	14.2
CC(=O)N1c2ccc(S(=O)(=O)NCC3CCC(C(=O)N(C)Cc4ccccc4)CC3)cc2CC1C (configuration not stated)	5564	4.3	15.0	2.9	-9.8	13.9	7.0
Cc1cc(C)n2cc(CSc3ccccn3)nc2n1	2335	5.6	14.8	2.2	-24.4	-2.3	5.8
O=C(COC(=O)c1ccccc1Nc1ccccc1)NCc1ccccc1Cl	9046	x	x	x	-15.6	-3.1	x
Cc1ccc(N(CC(N)=O)C2SC(=O)N(Cc3cccc(C(=O)O)c3)C2=O)cc1 (configuration not stated)	2798	-10.6	9.7	2.4	-15.2	2.1	3.5
Cc1cccc(N2C(=O)N3[C@H](c4ccc(Br)cc4)[C@@H]4C(=O)N(C(C)(C)C)C(=O)[C@@H]4[C@]3(Cc3ccc(Cl)cc3)C2=O)c1	3735	x	x	x	-7.3	-0.1	x
Cn1c(=O)c2c(ncn2CC(=O)OCC(=O)Nc2sccc2C(N)=O)n(C)c1=O	5584	3.3	4.9	4.4	-10.6	-0.5	2.5
COC(=O)C1CCN(C(=O)N2CCOCC2)CC1	11307	5.8	-3.7	-9.1	-7.2	-5.8	2.4
O=C(CSc1nnnn1C1CCCC1)Nc1ccc2c(c1)OCCO2	10441	5.7	6.6	5.1	-37.9	-1.5	2.3
Cc1ccc2c(c1)C1OCCC1C1N2C(=O)C2C(C(=O)O)C3C=CC21O3 (configuration not stated)	5507	5.2	4.7	1.4	-9.0	8.2	12.5
O=C(O)c1ccc(CCCc2ccccc2)cc1	3911	5.4	18.6	6.1	-21.3	x	-20.8
O=C(NN=C/C=C/c1ccco1)C(O)c1ccccc1 (configuration not stated)	x	0.8	10.4	-15.2	x	x	-1.5
CC1=C(C(=O)N(C)C)C(c2ccc(C)s2)NC(=S)N1 (configuration not stated)	4537	2.9	12.8	0.2	14.0	0.7	2.2
CCOC(=O)C(=O)Nc1ccccc1C(=O)NC(C)C	22964*	5.7	10.2	8.7	-2.1	6.1	2.7

Part of the list above, reformatted:
Below each compound: Bead autofluor | RN4220 kill | Mtb hypoxia rep | Mtb hypoxia rep growth | PrP 5UTR inh | BJeLR lethal | ugtP null kill
> COC(=O)C1CCN(C(=O)N2CCOCC2)CC1
    11307 | 5.8 | -3.7 | -9.1 | -7.2 | -5.8 | 2.4
> O=C(CSc1nnnn1C1CCCC1)Nc1ccc2c(c1)OCCO2
    10441 | 5.7 | 6.6 | 5.1 | -37.9 | -1.5 | 2.3
> Cc1ccc2c(c1)C1OCCC1C1N2C(=O)C2C(C(=O)O)C3C=CC21O3 (configuration not stated)
    5507 | 5.2 | 4.7 | 1.4 | -9.0 | 8.2 | 12.5

Source: PubChem BioAssay
